High-throughput results: PubChem BioAssay, National Center for Advancing Translational Sciences (NCATS)
Menin MLL FP FL: menin-MLL binding inhibition, fluorescein peptide; Fluorescence polarization, fluorescein-MLL peptide displacement from menin; FP activity change, % at 61.4 µM; AID 1766; 290,000 tested, under 10 active; inconclusive = falling polarisation curve, or a change in total fluorescence; inactive = total fluorescence flat and polarisation flat or rising; no compound was filed as active; the % refers to the polarisation; negative = inhibition;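 further: % of control where 0% means no effect; inhibitors lower the polarisation; unlabelled MLL peptide was the positive control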
Sfp PPTase inh: Sfp phosphopantetheinyl transferase inhibition. Biochemical Sfp PPTase activity, qHTS. Q9F4F7. 310,000 compounds, 3.5% hits. Potency, µM, for inactives: max response, negative = inhibition, most hits filed as inhibitors. AID 1490; active means well fitted inhibition curve with a large enough effect; inconclusive means small, poorly fitted or top-dose-only effect, or another doubt; inactive means no such curve, though single readings can be large or run the other way;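 further: the enzyme is Sfp with the accession as filed and its product quenches rhodamine fluorescence; potency means the concentration at half of the fitted maximal effect; 0% = enzyme reaction without inhibitor and -100% = no enzyme wells; top concentration of the series not given in the record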
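Buffer: 50 mM Hepes-Na pH 7.6, 10 mM MgCl2, 0.01% Nonidet P-40, 0.01% BSA. Enzyme 15 nM, pre-exposed to compound 15 min; substrates then added and fluorescence change tracked over 30 min.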
TRPML1 agonist: human mucolipin-1 channel agonism; 410,000 compounds, 0.12% hits; AID 624414; Q9GZU1; activation, % (no concentration beside the values); TRPML1-expressing cells, Ca2+ dye fluorescence, FDSS; host cell line not named in the record; reference of the full effect not given here; in the data active = activation above about 50%; inconclusive = about 30% to 50%; inactive = below about 30%; further: 0% is about no effect; the text of the record puts the active cut at 80%
Target sequence (Q9GZU1 whole entry, looked up): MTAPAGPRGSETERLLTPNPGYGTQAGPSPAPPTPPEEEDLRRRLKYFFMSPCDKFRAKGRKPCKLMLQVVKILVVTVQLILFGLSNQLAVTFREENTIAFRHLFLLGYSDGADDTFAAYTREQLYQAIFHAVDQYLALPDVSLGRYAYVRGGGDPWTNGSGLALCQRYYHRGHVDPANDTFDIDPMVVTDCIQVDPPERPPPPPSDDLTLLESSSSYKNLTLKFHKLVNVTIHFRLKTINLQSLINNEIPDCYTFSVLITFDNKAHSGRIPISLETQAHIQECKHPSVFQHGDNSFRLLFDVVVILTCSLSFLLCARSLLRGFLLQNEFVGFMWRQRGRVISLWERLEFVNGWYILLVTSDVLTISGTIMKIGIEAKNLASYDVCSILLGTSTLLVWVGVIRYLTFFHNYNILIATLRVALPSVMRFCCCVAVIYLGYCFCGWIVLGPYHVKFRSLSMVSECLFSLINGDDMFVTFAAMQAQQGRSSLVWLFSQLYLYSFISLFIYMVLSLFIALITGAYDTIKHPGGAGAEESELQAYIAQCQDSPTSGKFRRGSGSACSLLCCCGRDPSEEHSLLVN
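TRPML1-DL cells, Tet-induced overnight (~16 h, 37 degrees C), loaded 45-90 min at room temperature with Ca8 no-wash calcium dye plus quencher. FDSS fluorescence: 10 s baseline, compound pin-transfer, 110 s agonist read, then EC80 54-4 (4uM final) and 110 s antagonist read.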
TRPV1 PAM: human TRPV1 potentiation; Q8NER1; AID 540277; potentiation, % at 8.33 µM; 320,000 compounds, 0.02% hits; TRPV1-expressing cells, Fluo-8 calcium influx, capsaicin EC20 potentiation; host cell line not named in the record; control for the full effect not named in the record; active means potentiation above 80%; inconclusive means 30% to 80%; inactive means below 30%; further: 0% is about no effect
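Cells expressing TRPV1 were dye-loaded with Fluo-8 and read kinetically: 10 s baseline, 3 min after compound (agonist portion), then 2 min after EC20 capsaicin (allosteric enhancer portion). Calcium-bound dye fluorescence at 480/520 nm.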
ClpP mod: qHTS Assay for Activators of ClpP. purified B. subtilis ClpP, FRET peptide cleavage, 20 min. Potency, µM (highest dose often 57.5 µM), without a hit: at the highest dose activity change, negative = active. 340,000 compounds, 1.9% hits. AID 651965, 2013; active = well fitted falling curve with a large enough effect; inconclusive = small, poorly fitted or top-dose-only effect; inactive = no such curve, though single readings can be large or run the other way; further: potency means the concentration at half of the fitted maximal effect; the source files actives as falling curves though it sought activators and does not explain the sign; nearly all actives have a fitted effect of over 65% in size; many hits overshoot -100%
Target sequence (P80244 whole entry, looked up): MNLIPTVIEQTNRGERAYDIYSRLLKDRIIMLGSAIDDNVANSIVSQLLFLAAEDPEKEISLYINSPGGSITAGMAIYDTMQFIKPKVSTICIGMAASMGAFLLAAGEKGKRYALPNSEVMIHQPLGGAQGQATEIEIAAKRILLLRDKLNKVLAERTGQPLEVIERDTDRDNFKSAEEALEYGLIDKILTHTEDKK
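FRET quenching reversal measured ClpP activation: 10 microg/mL B. subtilis ClpP at pH 8 with the FRET-FV decapeptide, read at 430 nm after 320 nm excitation. The 20-min minus 0-min signal was scaled between DMSO/no-enzyme wells and ADEP (5.8 microM final).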
TRPML1 inh: human mucolipin-1 channel inhibition. activity change, negative = inhibition, % (no concentration beside the values). AID 624415. Q9GZU1. 390,000 compounds, 0.02% hits. TRPML1-inducible cells, Ca2+ dye fluorescence, FDSS; stronger effect = lower value; inhibition of EC80 agonist-evoked calcium signal; in the data active means activity change below about -50%; inconclusive means about -30% to -50%; inactive means above about -30%;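 further: stimulus is agonist 54-4 at its EC80 concentration; on the % scale 0 is the no-effect control and ±100 the full control effect; compound concentration not given in the record; the text of the record puts the active cut at -80%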
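Tet-induced TRPML1-DL cells loaded with Ca8 no-wash calcium dye were read kinetically on FDSS. Compound addition was followed by EC80 agonist 54-4 (4 uM final); inhibition was read over 110 s.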
PINK1 expr mod: modulators of PINK1 expression; PINK1 immunofluorescence, high-content cytometry, 24 h; Potency, µM (doses to about 76.6 µM), inactives show top-dose activation (PINK1 increase), hits mostly activators; AID 624263; 410,000 compounds, 0.2% hits; active = well fitted activation curve with a large enough effect; inconclusive = small, poorly fitted or top-dose-only effect; inactive = flat fitted curve, though single readings scatter; cell line not stated here;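 further: potency means the concentration at half of the fitted maximal effect; % of control where 0% means no effect; nearly all actives have a fitted effect of over 65% in size; a mitochondrial uncoupler was the plate control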
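Stable cell line treated 24 h with compounds at 5 concentrations (CCCP controls), then fixed and immunostained for PINK1 plus nuclear and cell stains; PINK1 immunofluorescence quantified by laser-scanning microplate cytometry.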
Active calls of the source: *; ? = inconclusive; · = not tested or not shown; [ ] = another dose, or the depositor's remark.

| smiles | Menin MLL FP FL | Sfp PPTase inh | TRPML1 agonist | TRPV1 PAM | ClpP mod | TRPML1 inh | PINK1 expr mod |
| --- | --- | --- | --- | --- | --- | --- | --- |
| CCOCCCNC(=O)/C(C#N)=C/c1cc(OC)c(O)c([N+](=O)[O-])c1 | 1.4 | -24% | -0.7 | -5 | · | 9 | 4.3% |
| CCCN(C(=O)c1ccc(-n2cncn2)c([N+](=O)[O-])c1)C1CCS(=O)(=O)C1 (configuration not stated) | · | · | -0.2 | -8 | -4.4% | -3 | -0.4% |
| CCn1nc(C)c2c(-c3ccccc3)cc(=O)n(C(C)C(=O)NCCc3ccc(OC)c(OC)c3)c21 (configuration not stated) | · | · | 1.7 | · | -9.8% | 6 | 3.6% |
| CCCN1CCC(NCC(C)c2ccccc2)CC1 (configuration not stated) | -4.8 | 5% | 0.9 | 21 | -1.2% | 8 | -0.4% |
| O=C(COc1ccccc1)Nc1c2c(nn1-c1ccccc1)CS(=O)(=O)C2 | · | 7% | 0.1 | -3 | -0.3% | 16 | 1.2% |
| Cc1ccc(CNC(=O)c2c(-c3ccccc3Cl)noc2C)cc1 | -1.5 | -4% | 1.4 | -7 | -2.7% | -5 | 1.5% |
| CCOc1ccccc1C1NC(=O)NC(C)=C1C(=O)OC1CCCCC1 (configuration not stated) | 4.0 | 3% | 2.2 | -6 | -1.8% | 19 | -1.5%[38.3 µM] |
| Cc1nc(NC(=O)c2ccc3c(c2)OCO3)ccc1Br | -0.3 | 15% | 0.5 | -8 | · | -9 | 8.1% |
| COc1ccc(C)cc1S(=O)(=O)N(C)CC(=O)N1CCCCC1 | · | · | -0.8 | · | ? | 35 | -1.3% |
| Cc1ccc(S(=O)(=O)CCC(=O)Nc2ccc(OC(F)(F)F)cc2)cc1 | · | · | 2.2 | · | 1.7% | 9 | 1.7% |
| COc1cc(/C=C/C(=O)OCC(=O)NCCc2ccccc2)ccc1OC(F)F | · | 9% | 0.5 | -1 | -24% | 6 | -0.4% |
| Cc1nc2c(C#N)c(C)[nH]n2c(=O)c1Cc1ccccc1 | 0.1 | 25% | -0.1 | 21 | ? | -4 | 0.0%[38.3 µM] |
| CCOc1ccc2cc(C#N)c(SCC(=O)N3CCC(C)CC3)nc2c1 | 4.0 | -9% | 0.5 | -2 | ? | -1 | ? |
| O=c1c(Cc2ccccc2O)c(O)nc2n1CCCS2 | 1.3 | 30%[activator] | 1.6 | -9 | -0.1% | 46 | -0.9% |
| CC(=O)OC(C)CS(=O)(=O)c1ccccc1 (configuration not stated) | -2.2 | 13% | 1.5 | -9 | · | 6 | -1.5% |
| Cc1nc(SCC(=O)N2CC(=O)Nc3ccccc32)nc(C)c1C | -3.8 | -25% | -0.5 | -5 | -0.1% | -8 | -0.5% |
| CCn1cc(/C=C(\NC(=O)c2cc(OC)c(OC)c(OC)c2)C(=O)N2CCN(C)CC2)c2ccccc21 | 0.2 | 4% | -0.6 | 4 | -0.6% | -16 | 0.6% |
| O=C(COc1ccc(S(=O)(=O)NCc2ccccc2)cc1Cl)N1CCOCC1 | -2.3 | 8% | -0.4 | -11 | -0.9% | 16 | 2.3%[38.3 µM] |
| CCC(=O)N1CCc2cc(Br)cc(S(=O)(=O)NCCN3CCCCC3C)c21 (configuration not stated) | -6.3 | 9% | -0.2 | 4 | 0.5% | 3 | 1.0% |
| COc1cccc(COC(=O)c2ccc3c(=O)n4c(nc3c2)CCC4)c1OC | · | · | 1.5 | 5 | 0.0% | -8 | 0.4% |
| CCN(CC)S(=O)(=O)c1ccc(NN=C2CCN(C(C)C)CC2)c([N+](=O)[O-])c1 | 4.7 | 0% | -0.1 | -1 | 0.7% | 15 | 6.9% |
| CCN1C(=O)c2cccc3c(NC(=O)c4cccc(N5C(=O)CCC5=O)c4)ccc1c23 | 1.0 | 8% | -0.2 | 25 | 1.6% | -4 | -0.7% |
| CCOC(=O)N1CCN(C(=O)c2ccc3c(=O)n(CCc4ccccc4)c(=S)[nH]c3c2)CC1 | 4.9 | 6% | 0.0 | · | 1.6% | 0 | 8.4% |
| C/C(=N\OCC(=O)OC(C)C(=O)Nc1ccc(C)c(S(=O)(=O)N2CCOCC2)c1)c1ccc2c(c1)OCO2 (configuration not stated) | · | · | 0.1 | · | -0.6% | 0 | -0.2% |
| N#Cc1cc(O)c(-n2nnc3ccccc32)cc1C#N | -17 | -19% | 0.8 | 5 | · | 6 | -1.3% |
| O=C(COC(=O)c1nc(-c2ccccc2)n(-c2cccc(C(F)(F)F)c2)n1)NCc1cccs1 | 2.4 | 1% | 2.0 | 4 | -19% | -10 | 8.8% |
| O=C(Nc1ccc(N2CCOCC2)cc1)c1cc2ccccc2o1 | -3.6 | -10% | -1.7 | -1 | -4.6% | -5 | -1.3% |
| Cc1cc(=O)n2nc(N3CCCC3C(=O)NCc3ccccn3)sc2n1 (configuration not stated) | 3.7 | 6% | 4.0 | -3 | -0.7% | 12 | 0.2% |
| COc1ccc(C(=O)N2CCC[C@@]3(CCN(c4cccc(-c5ccccc5)c4)C3)C2)cc1 | 21 | -6% | · | · | · | · | 4.3% |
| COC(=O)Nc1c(C)nn(Cc2ccccc2C)c1C | -0.7 | -1% | -0.2 | -21 | 1.1% | 7 | -1.8%[38.3 µM] |
| COc1ccc(N2CCN(C(=S)Nc3ccccc3OC)CC2)cc1 | -5.1 | 17% | -0.2 | -4 | ? | -10 | 0.6% |
| COc1cccc(C(=O)Nc2nc3nc(-c4ccccc4)cc(=O)n3[nH]2)c1 | · | · | 1.5 | · | -3.2% | 9 | 0.2% |
| O=C(CSc1ccc(Br)cc1)N1CCOCC1 | 0.2 | 0% | 0.2 | -31 | · | 4 | 2.3% |
| Cc1cc(=O)[nH]c(N2CCOCC2)n1 | 2.8 | 7% | 1.5 | -5 | · | -18 | 2.4% |
| COC(=O)c1c(SCC(=O)Nc2ccc(C)cc2)nc(=O)[nH]c1C | 11 | -7% | 1.4 | 9 | · | -5 | 0.9% |
| COC(=O)c1ccc(N2C(=O)CC(NCc3ccccc3)C2=O)cc1 (configuration not stated) | -1.3 | -2% | 0.5 | -1 | 0.4% | 27 | -0.8% |
| COc1c(C)cc(C(=O)C2CCCN(C(=O)c3cc(C)on3)C2)cc1C (configuration not stated) | -0.4 | 12% | 1.1 | -27 | · | -10 | -0.1% |
| C#CCOCCOCCOCCNc1nc(N2CCN(C(=O)Cn3cc(CCCN=C(N)N)nn3)CC2)nc(N2CCN(C(=O)[C@H]([C@@H](C)O)n3cc(CCCCN)nn3)CC2)n1 | · | · | -0.8 | -16 | 3.2% | -17 | 1.2% |
| Cc1ccc(NC(=O)CN(C)S(=O)(=O)c2ccc(Cl)s2)c(O)c1 | · | · | 1.2 | 4 | -2.5% | 3 | 1.2% |
| O=C(C1CCC(CNc2c(N3CCCCC3)c(=O)c2=O)CC1)N1CCc2ccccc2C1 (configuration not stated) | 2.5 | -3% | 0.6 | -2 | -1.5% | 0 | -0.7% |
| COc1ccc(C2c3c(-c4ccccc4)n[nH]c3C(=O)N2c2ccc(C(=O)O)cc2)c(OC)c1 (configuration not stated) | · | · | 0.0 | · | -1.2% | -3 | 0.5% |
| O=C(NCCc1ccc(F)cc1)Nc1ccc2c(c1)OCO2 | -1.2 | 4% | 5.6 | -17 | 1.6% | -11 | -1.3% |
| CC(C)Oc1ccc(S(=O)(=O)N2CCOCC2)cc1NC(=O)c1ccc(Cl)c(S(=O)(=O)N2CCOCC2)c1 | · | · | -0.3 | · | -4.6% | -7 | 5.1% |
| O=C(NC12CC3CC(CC(C3)C1)C2)N(Cc1ccccc1)Cc1ccncc1 | -1.3 | -13% | 1.0 | 15 | -1.7% | 8 | -1.0% |
| CCOC(=O)/C(C#N)=C/c1cn(CCC(=O)O)nc1-c1ccc(Cl)cc1 | 2.2 | 25% | 0.3 | 4 | -1.8% | 0 | 4.7% |
| CS(=O)(=O)N(CC(=O)NCCSc1ccccc1)c1ccc2c(c1)OCO2 | 0.0 | -2% | 0.2 | 3 | -0.3% | 0 | -3.7%[38.3 µM] |
| O=c1c2sc3ccccc3c2n(Cc2cccc(C(F)(F)F)c2)c(=O)n1Cc1ccco1 | · | · | -0.5 | · | ? | -6 | 1.5% |
| CN(c1ccccc1)S(=O)(=O)c1ccc(C(=O)NNC(=O)c2ccccc2F)cc1 | · | · | 1.8 | -2 | 0.6% | 11 | 6.2% |
| COc1ccc(CN(C)c2ccc(-c3nc(-c4ccccc4)no3)cc2[N+](=O)[O-])cc1 | · | · | -0.9 | · | 0.0% | -5 | 0.8% |
| N#CCCn1c(=O)c(-c2cc(F)cc(F)c2)nc2cnc(N3CCOCC3)nc21 | ? | 18% | · | · | · | · | 1.6% |

(list continues)
| smiles | Menin MLL FP FL | Sfp PPTase inh | TRPML1 agonist | TRPV1 PAM | ClpP mod | TRPML1 inh | PINK1 expr mod |
| --- | --- | --- | --- | --- | --- | --- | --- |
| O=C(CN1C(=O)C2CC=CCC2C1=O)Nc1nccs1 (configuration not stated) | 3.6 | 1% | -0.9 | 2 | -4.2% | -3 | -0.9% |
| Cc1ccc(S(=O)(=O)Oc2ccccc2/C=N/NC(=O)c2c(Cl)cnn2C)cc1 | 4.9 | 5% | 0.8 | -9 | 0.8% | -2 | -0.7% |
| CCOC(=O)C1CCN(S(=O)(=O)c2ccc(OC)c(Cl)c2)CC1 | -0.8 | 8% | -0.4 | -1 | · | 38 | 2.9% |
| COc1ccccc1CNC(=O)C1CCCN(c2nn3cc(-c4ccc(F)cc4)nc3s2)C1 (configuration not stated) | · | · | 0.0 | · | 0.3% | 4 | 2.1% |
| Cc1cc2c(cc1C)CSC(c1ccc3ccccc3c1O)SC2 | 3.1 | -1% | 1.0 | ? | -19% | 19 | 13% |
| CN1C(=O)C(C)(C)c2cc(S(=O)(=O)N3CCC(C(=O)NCc4ccc(F)cc4)CC3)ccc21 | 0.8 | 22% | -0.7 | 7 | 0.4% | -5 | -1.1% |
| CCCCCCCCN1C(=O)[C@H](CC(=O)N2CCN(C(=O)C3CC3)CC2)C[C@@]2(C(=O)OC)CCCCC=C12 | · | · | -0.6 | · | 1.5% | · | -0.4% |
| COc1ccc(CNC(=O)COc2cc(O)c3c(c2)OC(C)(C)CC3=O)cc1 | -0.1 | 13% | · | -23 | -28% | · | 0.0% |
